Bioassay records from PubChem.
A1 apoptosis 2: blocks A1, raising caspase activity; caspase activation, % (test concentration not listed); MEF A1-2A-BIM cells, caspase-Glo luminescence, 3 h; percent of clofoctol response, DMSO zero; 24,000 tested, under 10 active; in the data active means caspase activation above about 5.9%;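 further: wells of about 30 µL received 50 nL stock; the first replicate is given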
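System: mouse embryonic fibroblasts co-expressing A1 and BIM (A1-2A-BIM), primed for A1 dependence; amount: 2500 cells/well; doses: 50 nL pinned compound; schedule: cells settled overnight, compound exposure 3 h at 37 °C, 5% CO2; detection: Caspase-Glo 3/7 luminescence, 1 h at room temperature; read-out: Caspase-3/7 activation, seen as rise in luminescence signal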
An asterisk follows results filed as active; & = joins results of further samples. An excerpt, so the mix of outcomes need not match the whole.

SMILES	A1 apoptosis 2
COc1ccc(S(=O)(=O)Nc2ccc3c(c2)C(=O)N([C@H](C)CO)C[C@@H](C)[C@@H](CN(C)Cc2ccc(-c4ccccc4)cc2)O3)cc1	0.5
COc1ccc(S(=O)(=O)Nc2cccc3c2O[C@H](CN(C)C)[C@@H](C)CN([C@H](C)CO)C3=O)cc1	1.8
C[C@H]1CN([C@@H](C)CO)C(=O)Cc2cc(NC(=O)NC3CCCCC3)ccc2O[C@@H]1CN(C)Cc1ccc(C(F)(F)F)cc1	-0.3
CNC[C@H]1Oc2ccc(NS(=O)(=O)c3cccs3)cc2CC(=O)N([C@@H](C)CO)C[C@H]1C	0.4
C[C@@H]1CN([C@@H](C)CO)C(=O)c2cc(NS(=O)(=O)c3ccc(Cl)cc3)ccc2O[C@H]1CN(C)CC1CC1	-1.2
C[C@@H]1CN([C@@H](C)CO)C(=O)Cc2cc(NC(=O)C3CC3)ccc2O[C@H]1CN(C)C(=O)Nc1ccc2c(c1)OCO2	0.2
C[C@H](CO)N1C[C@H](C)[C@H](CN(C)Cc2ccccc2)OCCCC[C@H](C)Oc2ccc(NC(=O)Cc3ccccc3)cc2C1=O	-0.2
C[C@@H]1CN([C@@H](C)CO)C(=O)c2cccc(NC(=O)c3ccc(-c4nccs4)cc3)c2O[C@@H]1CN(C)S(C)(=O)=O	-0.4
CC(C)NC(=O)N(C)C[C@@H]1Oc2c(NC(=O)C3CCCCC3)cccc2C(=O)N([C@H](C)CO)C[C@@H]1C	0.2
C[C@H]1CN([C@@H](C)CO)C(=O)Cc2cc(NC(=O)NC3CCCCC3)ccc2O[C@@H]1CN(C)CC1CC1	-0.6
Cc1ccc(S(=O)(=O)N(C)C[C@@H]2OCCCC[C@H](C)Oc3ccc(NS(=O)(=O)c4cccs4)cc3C(=O)N([C@H](C)CO)C[C@H]2C)cc1	-0.7
Cc1cc(C)cc(N2C(=O)CS(=O)(=O)C2c2ccccc2)c1 (stereo not given)	-0.4
COc1ccc(S(=O)(=O)N(C)C[C@@H]2OCCCC[C@H](C)Oc3ccc(NS(=O)(=O)c4ccc(Cl)cc4)cc3C(=O)N([C@H](C)CO)C[C@@H]2C)cc1	-1.8
C[C@@H]1CCCCO[C@H](CN(C)S(=O)(=O)c2ccc(Cl)cc2)[C@H](C)CN([C@H](C)CO)C(=O)c2cc(NS(=O)(=O)c3ccccc3)ccc2O1	-1.5
C[C@@H]1CN([C@@H](C)CO)C(=O)Cc2cc(NC(=O)c3ccncc3)ccc2O[C@H]1CN(C)S(C)(=O)=O	-0.9
C[C@@H]1CN([C@H](C)CO)C(=O)c2cc(NC(=O)C3CC3)ccc2O[C@@H]1CN(C)C(=O)Nc1ccc2c(c1)OCO2	0.9
CNC[C@H]1Oc2c(NC(=O)NC3CCCCC3)cccc2C(=O)N([C@H](C)CO)C[C@@H]1C	-0.4
Cc1noc(C)c1S(=O)(=O)N(C)C[C@H]1Oc2ccc(NC(=O)Cc3ccccc3)cc2CC(=O)N([C@@H](C)CO)C[C@H]1C	-1.2
C[C@@H]1CCCCO[C@@H](CN(C)Cc2ccc3c(c2)OCO3)[C@H](C)CN([C@@H](C)CO)C(=O)c2cc(NS(=O)(=O)c3ccccc3)ccc2O1	-1.4
C[C@@H]1CN([C@@H](C)CO)C(=O)c2cc(NS(=O)(=O)c3ccccc3)ccc2O[C@@H](C)CCCCO[C@@H]1CN(C)S(=O)(=O)c1ccccc1	-1.0
C[C@@H]1CN([C@@H](C)CO)C(=O)Cc2cc(NC(=O)CCCCCC(=O)Nc3ccccc3N)ccc2O[C@@H]1CN(C)S(=O)(=O)c1ccc(Cl)cc1	0.4
C[C@H]1CN([C@@H](C)CO)C(=O)c2cc(NS(=O)(=O)c3cccs3)ccc2O[C@@H]1CN(C)S(=O)(=O)c1cccs1	-0.3
C[C@H]1CN([C@@H](C)CO)C(=O)c2cc(NS(=O)(=O)c3ccccc3)ccc2O[C@@H]1CN(C)Cc1ccc(C(=O)O)cc1	0.0
Cc1ccc(S(=O)(=O)Nc2ccc3c(c2)C(=O)N([C@@H](C)CO)C[C@H](C)[C@@H](CN(C)C)O3)cc1	-0.1
C[C@@H]1CN([C@H](C)CO)C(=O)c2cc(NS(=O)(=O)c3cn(C)cn3)ccc2O[C@@H](C)CCCCO[C@@H]1CN(C)CC1CC1	2.3
CC(C)NC(=O)Nc1cccc2c1O[C@H](CN(C)C(=O)Nc1ccccc1)[C@H](C)CN([C@@H](C)CO)C2=O	-0.3
C[C@H](CO)N1C[C@H](C)[C@H](CN(C)C(=O)c2ccc3ccn(C)c3c2)OCc2cn(nn2)CCCC1=O	0.3
Cc1noc(C)c1NC(=O)Nc1ccc2c(c1)C(=O)N([C@@H](C)CO)C[C@H](C)[C@@H](CN(C)C(=O)NC1CCCCC1)OCCCC[C@H](C)O2	0.3
COc1ccc(NC(=O)N(C)C[C@@H]2Oc3ccc(NC(=O)NC(C)C)cc3CC(=O)N([C@H](C)CO)C[C@H]2C)cc1	-1.6
Cc1noc(C)c1NC(=O)Nc1ccc2c(c1)C(=O)N([C@H](C)CO)C[C@H](C)[C@@H](CN(C)Cc1ccccc1)OCCCC[C@H](C)O2	-0.8
COc1ccc(C#Cc2ccc3c(c2)[C@]2(C(=O)N3)[C@H](C(N)=O)[C@H]3C(=O)O[C@H](c4ccccc4)[C@H](c4ccccc4)N3[C@@H]2c2ccccc2OCCO)cc1	-0.5
C[C@H]1CCCCO[C@H](CN(C)Cc2ccc3c(c2)OCO3)[C@@H](C)CN([C@@H](C)CO)C(=O)c2cc(NC(=O)Nc3ccc4c(c3)OCO4)ccc2O1	0.8
C[C@@H]1CN([C@H](C)CO)C(=O)c2cc(NC(=O)C3CCCCC3)ccc2O[C@@H](C)CCCCO[C@H]1CN(C)C(=O)c1ccccc1	1.6
O=C1CS(=O)(=O)C(c2cccc([N+](=O)[O-])c2)N1c1ccccc1 (stereo not given)	1.2
C[C@H](CO)N1C[C@H](C)[C@H](CN(C)Cc2ccc(Cl)c(Cl)c2)Oc2ccc(NC(=O)Cc3ccccc3)cc2CC1=O	0.0
Cc1noc(C)c1S(=O)(=O)Nc1ccc2c(c1)CC(=O)N([C@@H](C)CO)C[C@@H](C)[C@H](CN(C)S(=O)(=O)c1ccccc1)O2	1.6
C[C@@H]1CCCCO[C@H](CN(C)C(=O)Cc2ccccc2)[C@H](C)CN([C@@H](C)CO)C(=O)c2cc(NS(=O)(=O)c3ccc(Cl)cc3)ccc2O1	-0.8
C[C@@H]1CN([C@H](C)CO)C(=O)Cc2cc(NS(=O)(=O)c3ccccc3)ccc2O[C@@H]1CN(C)C(=O)Nc1ccc2c(c1)OCO2	-0.7
O=C(CCCCCC(=O)Nc1ccccc1O)N/N=C/c1cccc(B(O)O)c1	0.5
Cc1noc(C)c1S(=O)(=O)Nc1ccc2c(c1)C(=O)N([C@@H](C)CO)C[C@H](C)[C@@H](CN(C)C(=O)Nc1ccc(F)cc1)OCCCC[C@@H](C)O2	-0.7
C[C@@H]1CN([C@H](C)CO)C(=O)Cc2cc(NC(=O)Nc3ccc(C(F)(F)F)cc3)ccc2O[C@H]1CN(C)Cc1ccncc1	0.8
[N-]=[N+]=NC[C@H](Cc1ccccc1)NC(=O)Nc1ccccc1	0.1&-3.8
Cc1noc(C)c1S(=O)(=O)Nc1ccc2c(c1)C(=O)N([C@@H](C)CO)C[C@H](C)[C@@H](CN(C)C)OCCCC[C@H](C)O2	0.1
C[C@@H]1CN([C@H](C)CO)C(=O)Cc2cc(NC(=O)CCN3CCOCC3)ccc2O[C@@H]1CN(C)C(=O)Nc1ccc(F)cc1	1.3
C[C@@H]1CN([C@@H](C)CO)C(=O)Cc2cc(NS(=O)(=O)c3ccccc3)ccc2O[C@@H]1CN(C)C(=O)NC1CCCCC1	-0.2
Cc1noc(C)c1S(=O)(=O)N(C)C[C@H]1OCCCC[C@@H](C)Oc2ccc(NC(=O)c3ccccc3)cc2C(=O)N([C@@H](C)CO)C[C@H]1C	0.7
COc1ccc(NC(=O)N(C)C[C@H]2Oc3ccc(NC(=O)Nc4ccc(F)cc4)cc3C(=O)N([C@H](C)CO)C[C@@H]2C)cc1	-2.2
C[C@H]1CN([C@@H](C)CO)C(=O)c2cccc(NC(=O)C3CCOCC3)c2O[C@@H]1CN(C)Cc1ccc(C(F)(F)F)cc1	0.6
COc1ccc(NC(=O)Nc2cccc3c2O[C@H](CN(C)S(=O)(=O)c2ccc(Cl)cc2)[C@@H](C)CN([C@@H](C)CO)C3=O)cc1	-0.1
C[C@@H]1CN([C@@H](C)CO)C(=O)c2cc(NC(=O)Nc3ccc4c(c3)OCO4)ccc2O[C@@H]1CN(C)S(C)(=O)=O	-0.1
COc1ccc(NC(=O)Nc2ccc3c(c2)C(=O)N([C@H](C)CO)C[C@@H](C)[C@@H](CN(C)C(=O)Nc2ccc(F)cc2)O3)cc1	0.4
C[C@@H]1CN([C@@H](C)CO)C(=O)c2cccc(NS(C)(=O)=O)c2O[C@H]1CN(C)S(=O)(=O)c1cccs1	0.1
Cc1noc(C)c1NC(=O)N(C)C[C@@H]1OCCCC[C@@H](C)Oc2ccc(N(C)C)cc2C(=O)N([C@@H](C)CO)C[C@@H]1C	1.5
CC(C)NC(=O)Nc1ccc2c(c1)CC(=O)N([C@H](C)CO)C[C@H](C)[C@H](CN(C)Cc1ccc3c(c1)OCO3)O2	0.4
COc1ccc(NC(=O)Nc2ccc3c(c2)C(=O)N([C@H](C)CO)C[C@@H](C)[C@@H](CN(C)Cc2ccncc2)O3)cc1	-1.0
C[C@@H]1CN([C@@H](C)CO)C(=O)CCCn2cc(nn2)CO[C@@H]1CN(C)C(=O)Nc1ccc(N2CCCCC2)cc1	1.1
Cc1noc(C)c1NC(=O)N(C)C[C@H]1OCCCC[C@H](C)Oc2ccc(NC(=O)CCC(F)(F)F)cc2C(=O)N([C@@H](C)CO)C[C@H]1C	-0.8
C[C@@H]1CN([C@H](C)CO)C(=O)c2cc(NC(=O)C3CCCCC3)ccc2O[C@@H]1CN(C)CC1CCCCC1	-0.5
Cc1ccc(S(=O)(=O)Nc2ccc3c(c2)C(=O)N([C@@H](C)CO)C[C@@H](C)[C@@H](CN(C)Cc2ccc4c(c2)OCO4)OCCCC[C@@H](C)O3)cc1	2.1
COc1ccc(S(=O)(=O)N(C)C[C@H]2Oc3c(NC(=O)c4ccncc4)cccc3C(=O)N([C@@H](C)CO)C[C@H]2C)cc1	0.5
(listing goes on)
SMILES	A1 apoptosis 2
C[C@@H]1CCCCO[C@@H](CN(C)S(=O)(=O)c2ccc(F)cc2)[C@H](C)CN([C@@H](C)CO)C(=O)c2cc(NC(=O)c3ccccc3)ccc2O1	0.4
O=C1O[C@@H](c2ccccc2)[C@@H](c2ccccc2)N2[C@@H](c3ccccc3OCCO)[C@]3(C(=O)Nc4ccccc43)[C@@H](C(=O)N3CCN(c4ncccn4)CC3)[C@H]12	-1.3
C[C@@H]1CN([C@H](C)CO)C(=O)c2cc(NS(=O)(=O)c3cccs3)ccc2O[C@@H](C)CCCCO[C@@H]1CN(C)C(=O)C1CCCCC1	-1.3
CNC[C@H]1Oc2ccc(NS(=O)(=O)c3c(C)noc3C)cc2C(=O)N([C@@H](C)CO)C[C@@H]1C	1.5
COc1ccc(NC(=O)Nc2ccc3c(c2)CC(=O)N([C@H](C)CO)C[C@H](C)[C@@H](CN(C)Cc2ccc(C(=O)Nc4ccccc4N)cc2)O3)cc1	-0.9
Cc1ccc(S(=O)(=O)Nc2cccc3c2O[C@@H](CN(C)Cc2ccc(C(=O)O)cc2)[C@H](C)CN([C@H](C)CO)C3=O)cc1	0.6
C[C@@H]1CCCCO[C@H](CN(C)Cc2ccc(Cl)c(Cl)c2)[C@@H](C)CN([C@@H](C)CO)C(=O)c2cc(NC(=O)CCC(F)(F)F)ccc2O1	0.0
Cc1noc(C)c1S(=O)(=O)Nc1ccc2c(c1)CC(=O)N([C@H](C)CO)C[C@@H](C)[C@H](CN(C)Cc1ccc(C(=O)O)cc1)O2	2.1
COc1ccc(NC(=O)Nc2ccc3c(c2)C(=O)N([C@@H](C)CO)C[C@@H](C)[C@@H](CN(C)Cc2ccccc2)O3)cc1	-0.3
Cc1ccc(S(=O)(=O)N(C)C[C@H]2Oc3ccc(NS(=O)(=O)c4ccc(Cl)cc4)cc3CC(=O)N([C@@H](C)CO)C[C@H]2C)cc1	0.8

6 records drawn at random from the list so far, as already listed:
SMILES	A1 apoptosis 2
Cc1ccc(S(=O)(=O)Nc2cccc3c2O[C@@H](CN(C)Cc2ccc(C(=O)O)cc2)[C@H](C)CN([C@H](C)CO)C3=O)cc1	0.6
C[C@@H]1CCCCO[C@@H](CN(C)S(=O)(=O)c2ccc(F)cc2)[C@H](C)CN([C@@H](C)CO)C(=O)c2cc(NC(=O)c3ccccc3)ccc2O1	0.4
Cc1ccc(S(=O)(=O)N(C)C[C@H]2Oc3ccc(NS(=O)(=O)c4ccc(Cl)cc4)cc3CC(=O)N([C@@H](C)CO)C[C@H]2C)cc1	0.8
Cc1noc(C)c1S(=O)(=O)Nc1ccc2c(c1)CC(=O)N([C@H](C)CO)C[C@@H](C)[C@H](CN(C)Cc1ccc(C(=O)O)cc1)O2	2.1
C[C@@H]1CN([C@H](C)CO)C(=O)c2cc(NS(=O)(=O)c3cccs3)ccc2O[C@@H](C)CCCCO[C@@H]1CN(C)C(=O)C1CCCCC1	-1.3
O=C1O[C@@H](c2ccccc2)[C@@H](c2ccccc2)N2[C@@H](c3ccccc3OCCO)[C@]3(C(=O)Nc4ccccc43)[C@@H](C(=O)N3CCN(c4ncccn4)CC3)[C@H]12	-1.3
